TRPML1 ag: activates the human TRPML1 channel; activation, % (test concentration not listed); hit rate 0.12% among 410,000; Q9GZU1; TRPML1-expressing cells, Ca2+ dye fluorescence, FDSS; host cell line not named in the record; reference of the full effect not given here; AID 624414; in the data active = activation above about 50%; inconclusive = about 30% to 50%; inactive = below about 30%; further: 0% is about no effect; the text of the record puts the active cut at 80%
Target sequence (Q9GZU1 whole entry, looked up): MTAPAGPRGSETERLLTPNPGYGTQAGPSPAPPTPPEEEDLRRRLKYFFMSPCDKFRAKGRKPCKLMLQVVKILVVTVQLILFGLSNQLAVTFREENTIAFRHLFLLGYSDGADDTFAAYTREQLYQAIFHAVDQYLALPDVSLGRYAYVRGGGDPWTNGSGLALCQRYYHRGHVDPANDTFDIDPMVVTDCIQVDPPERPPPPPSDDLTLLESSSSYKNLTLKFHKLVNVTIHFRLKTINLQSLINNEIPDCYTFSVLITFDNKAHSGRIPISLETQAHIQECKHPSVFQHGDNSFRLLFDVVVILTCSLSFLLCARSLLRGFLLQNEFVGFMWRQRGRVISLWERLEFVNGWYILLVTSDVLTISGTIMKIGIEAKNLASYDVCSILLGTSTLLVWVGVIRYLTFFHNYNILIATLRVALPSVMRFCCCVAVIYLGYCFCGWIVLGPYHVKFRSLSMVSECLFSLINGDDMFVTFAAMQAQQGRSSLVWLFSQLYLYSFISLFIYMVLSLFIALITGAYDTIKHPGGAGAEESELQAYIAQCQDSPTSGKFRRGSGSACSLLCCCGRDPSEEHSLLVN
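Agonist activity was taken from a 110 s kinetic Ca2+ dye read on the FDSS after pinning compounds onto TRPML1-DL cells. The cells were seeded at 1,500/well with Tet inducer, incubated about 16 h, then dye-loaded at room temperature.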
gsp agonist: activates gsp, the McCune-Albright syndrome mutation; gsp mutant cells, cAMP HTRF, 30 min; control for the full effect not named in the record; Potency, µM (highest dose often 76.9 µM), for the others: top-dose activation (cAMP increase), hits mostly activators; hit rate 0.13% among 340,000; active = well fitted activation curve with a large enough effect; inconclusive = small, poorly fitted or top-dose-only effect, or another doubt; inactive = no such curve, though single readings can be large or run the other way; cell line not stated here;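 further: phosphodiesterase inhibitor Ro 20-1724 added with compounds to block cAMP breakdown; potency means the concentration at half of the fitted maximal effect; nearly all actives have a fitted effect of over 60% in size; about a fifth of the inactives were tested at one dose only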
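Cells stably selected in G418 were plated at 2000/well, grown 16-24 hr, then given compounds in DMSO with the PDE inhibitor […] (300 uM solution added) for 30 min at 37C; cAMP was read by HTRF.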
Menin MLL FP FL: displaces fluorescein MLL peptide from human menin; Fluorescence polarization, fluorescein-MLL peptide displacement from menin; FP activity change, % at 61.4 µM; 290,000 tested, under 10 active; inconclusive = falling polarisation curve, or a change in total fluorescence; inactive = total fluorescence flat and polarisation flat or rising; no compound was filed as active; the % refers to the polarisation; negative = inhibition;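 further: % of control where 0% means no effect; inhibitors lower the polarisation; unlabelled MLL peptide was the positive control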
gsp antagonist: gsp mutant antagonism; gsp-mutant cells, cAMP HTRF, 30 min; control for the full effect not named in the record; Potency, µM (highest dose often 76.9 µM), for inactives: at the top dose activity change, negative = inhibition, usual class: inhibitors; hit rate 0.4% among 340,000; active = falling curve of any shape with a large fitted effect; inconclusive = falling curve, mostly with a smaller effect; inactive = flat or rising curve; cell line not stated here;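 further: intracellular cAMP measured with PDE inhibitor Ro 20-1724 present during compound exposure; potency means the concentration at half of the fitted maximal effect; on the % scale 0 is the no-effect control and ±100 the full control effect; nearly all actives have a fitted effect of over 65% in size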
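HTRF cAMP measurement after 30 min RT detection following 30 min, 37C compound treatment alongside […] (added as 300 uM solution) in G418-selected cells seeded at 2000/well and grown 16–24 h.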
ClpP mod: qHTS Assay for Activators of ClpP; purified B. subtilis ClpP, FRET peptide cleavage, 20 min; Potency, µM (highest dose often 57.5 µM), without a hit: at the top dose activity change, negative = active; hit rate 1.9% among 340,000; AID 651965, 2013; active = well fitted falling curve with a large enough effect; inconclusive = small, poorly fitted or top-dose-only effect; inactive = no such curve, though single readings can be large or run the other way; further: potency means the concentration at half of the fitted maximal effect; the source files actives as falling curves though it sought activators and does not explain the sign; nearly all actives have a fitted effect of over 65% in size; many hits overshoot -100%
Target sequence (P80244 whole entry, looked up): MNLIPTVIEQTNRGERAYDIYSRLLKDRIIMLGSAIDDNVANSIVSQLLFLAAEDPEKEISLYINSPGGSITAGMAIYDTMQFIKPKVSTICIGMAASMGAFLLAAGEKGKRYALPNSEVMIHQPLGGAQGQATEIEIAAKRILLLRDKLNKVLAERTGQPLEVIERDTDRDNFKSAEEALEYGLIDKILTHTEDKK
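ClpP 10 microg/mL final, pH 8 Tris/KCl buffer with BSA, glycerol, Tween-20; compound pinned in; FRET-FV substrate; RT 20 min; Ex320/Em430; ΔFRET vs ADEP 5.8 microM, DMSO, no enzyme.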
TRPML1 blocker: inhibitors of human TRPML1 channel | hit rate 0.02% among 390,000 | Q9GZU1 | TRPML1-inducible cells, Ca2+ dye fluorescence, FDSS; hits give low values; inhibition of EC80 agonist-evoked calcium signal | activity change, negative = inhibition, % (concentration not given with the values); in the data active means activity change below about -50%; inconclusive means about -30% to -50%; inactive means above about -30%;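 further: stimulus is agonist 54-4 at its EC80 concentration; on the % scale 0 is the no-effect control and ±100 the full control effect; compound concentration not given in the record; the text of the record puts the active cut at -80%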
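Calcium fluorescence in TRPML1-DL cells induced overnight with Tet: a 110 s read after compound pin addition, then a 110 s antagonist read after challenge with 54-4 at 4 uM final (EC80).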
An asterisk follows results filed as active; ? = inconclusive; / = no result given; & = joins results of further samples; [ ] = another dose, or the depositor's remark.

SMILES	TRPML1 ag	gsp agonist	Menin MLL FP FL	gsp antagonist	ClpP mod	TRPML1 blocker
N/C(=N\OC(=O)Cc1ccccc1)c1ccc(Br)cc1	-0.4	-3.9%	3.8	5.2%	1.5%	0.6
CCOC(=O)C1CCN(C(=O)c2cccnc2Cl)CC1	3.8	-6.1%	1.5	0.1%	-0.1%	-8.5
COc1cc(C(=O)CC2(O)C(=O)N(Cc3ccccc3Cl)c3ccccc32)cc(OC)c1OC (configuration not stated)	0.2	/	/	/	-2.9%	9.3
Cc1ccc(/C=C/c2nnc(-c3ccccc3)o2)cc1	1.2	-43.7%[inhibitor]	0.0	0.6%	31.6µM*	-6.7
COc1ccc(S(=O)(=O)Nc2cccc(-c3ccc(N4CCC(C)CC4)nn3)c2)c(OC)c1	-0.5	/	/	/	-3.3%	-20.2
O=C(Nc1ccnn1C1CCNCC1)c1ccc2c(c1)OCO2	-0.1	-12.6%[15.4 µM]	/	3.6%	/	-9.7
CC(C)C1C(=O)N(Cc2cn(CCC3OCCO3)nn2)CCS(=O)(=O)N1Cc1ccc(-c2cccc(CO)c2)cc1 (configuration not stated)	-0.5	-13.2%	/	/	2.0%	-9.1
C=CCN1C(=O)C(Cc2ccc(OCC)cc2)SC1=Nc1ccc(C(=O)O)cc1 (configuration not stated)	-0.2	1.1%[15.4 µM]	4.5	-9.9%	-1.6%	-6.8
Cc1cc2nc3ccc(=[N+](C)C)cc-3sc2cc1N	0.1	-45.0%[inhibitor]	-21.8	?	0.8%	-27.0
CC(C)c1ccc(NC(=O)CCN2C(=O)[C@@H]3Cc4ccccc4CN3C2=O)cc1	2.1	-12.0%	/	12.2%	1.1%	27.3
Fc1ccc(CCN2CCN=C2Nc2ccccc2)cc1	3.8	/	/	4.1%	1.5%	-8.6
CCC(=Cc1ccccc1OC)c1ccncc1	2.3	0.9%	/	-1.8%	/	-1.1
CC(=O)c1ccc(Nc2nc3ccccc3nc2-n2nc(C)cc2C)cc1	-0.1	/	/	/	-11.4%	-7.5
CCN(CC)S(=O)(=O)c1ccc(NC(=O)Cn2cnc3ccccc3c2=O)cc1	-0.7	-1.8%	-1.8	8.5%	-1.0%	8.8
C=CCn1c(COc2ccc(Cl)cc2)nnc1SCC(=O)N1CC(=O)Nc2ccccc21	0.0	4.2%	2.6	?	0.3%	4.9
CN(C)S(=O)(=O)N1CCC(Oc2cccc(C(=O)NC3CCCCCC3)c2)CC1	-0.3	-15.3%	/	?	-15.3%	4.2
O=C(COC(=O)c1cccc(Br)c1)NCCC1=CCCCC1	4.5	11.3%[15.4 µM]	-3.9	-3.1%	/	8.1
COc1ccc(-n2c(C)cc(C(=O)CSc3ccc(NC(C)=O)cc3)c2C)cc1	2.0	0.0%	3.0	-13.6%	-5.4%	-17.8
Cn1cnnc1Sc1ccc(C(=O)OCC(=O)Nc2cc(Cl)cc(Cl)c2)cc1[N+](=O)[O-]	-0.1	-44.9%[inhibitor]	3.8	1.2%	-1.5%	-3.8
CCCN1CCN(C(=O)Cn2ncc3c4ccccc4n(Cc4cccc(Cl)c4)c3c2=O)CC1	0.0	/	/	/	-29.2%	9.5
COc1ccc(SC[C@H](CC(C)C)N2CCN(C)CCC2=O)cc1	3.5	/	-0.5	11.7%	1.5%	-10.8
COc1cc(/C=C/C(=O)OCC(=O)Nc2ccc(C)cc2[N+](=O)[O-])ccc1O	-0.2	-18.1%	2.6	7.5%	-1.2%	26.3
O=C(CCCCCn1nnc2ccccc2c1=O)N[C@H](C(=O)O)c1ccccc1	-0.7	14.7%[15.4 µM]	-0.7	-1.1%	/	-6.7
COc1ccc(NS(=O)(=O)c2cc(OCC(N)=O)c(C)cc2Cl)cc1	0.9	1.3%	3.1	8.3%	-9.2%	31.7
O=[N+]([O-])c1cccc(NC2=NCCC2)c1	0.4	-0.5%[15.4 µM]	0.5	18.5%	/	-9.8
CCCN(C(=O)C(C)Oc1cccc(Cl)c1)c1c(N)n(Cc2ccccc2)c(=O)[nH]c1=O (configuration not stated)	0.3	-5.6%[15.4 µM]	-1.9	0.7%	-0.2%	-13.3
COC(=O)c1ccc(OCC2c3cc(OC)c(OC)cc3CCN2C(=O)C(C)C)cc1 (configuration not stated)	1.6	/	/	/	-1.6%	8.7
Cc1cc2c(cc1C)N(Cc1ccccc1)C1=NCCCN12	/	3.1%	3.6	2.2%	-3.7%	/
CCc1nc2ccccc2n(CCOCCn2c(=O)c(CC)nc3ccccc32)c1=O	0.9	0.7%	0.8	0.6%	-7.4%	34.3
Cc1ccc(OC(=O)c2cccc(C(=O)Oc3ccc(C)cc3)n2)cc1	2.7	15.4%	3.3	3.7%	-3.5%	-19.8
CCN1C(=O)C2(C(C#N)=C(N)Oc3cc(C)oc(=O)c32)c2ccccc21 (configuration not stated)	-0.6	?	0.8	-9.2%	-1.5%	-13.6
CN(C(=O)COC(=O)c1ccc(C#N)cc1)c1ccccc1	-0.5	-1.0%[15.4 µM]	0.5	0.0%	/	2.8
CC(/C=N/n1c(-c2ccc(C)cc2)n[nH]c1=S)=C\c1ccco1	0.3	-13.3%	4.5	-11.0%	1.0%	7.8
Cc1nc2nc(C)c(NS(=O)(=O)c3ccc(F)cc3)c(=O)n2[nH]1	-0.2	/	/	/	-0.7%	8.6
CC1=C(C(=O)N(C)C)CC(CC(=O)NCCN2CCOCC2)C(=O)N1Cc1ccccc1 (configuration not stated)	0.1	-32.8%	/	/	1.4%	2.8
CN(C)c1ccc(S(=O)(=O)N2CCCCC2)cc1NC(=O)CCNC(=O)c1ccc(Cl)cc1	2.1	11.7%	/	-7.1%	?	27.9
Cc1cccn2c(=O)c3cc(C(=O)NCc4ccco4)c(=N)n(C4CCCC4)c3nc12	-0.9	1.2%[15.4 µM]	/	-8.7%	/	2.1
CC(C)(NO)/C(=N\O)c1ccccc1	-0.5	2.5%	-0.2	9.3%	-3.7%	4.6
Cc1cc(NC(=O)CCSc2nc(-c3ccco3)cc(C(F)(F)F)n2)n(-c2ccccc2)n1	1.5	-1.3%	0.7	-11.1%	-1.6%	4.9
Cc1ccc(N2C(=O)CCSC23C(=O)N(Cc2ccccc2)c2ccccc23)cc1F (configuration not stated)	1.7	/	/	/	-1.8%	-19.0
O=C(c1cnn2c(C(F)F)cc(-c3ccccc3)nc12)N1CCOCC1	-0.3	-10.6%	-1.7	5.6%	-10.0%	6.8
O=C1CC(N2CCN(c3ccc(Cl)cc3)CC2)C(=O)N1c1ccc(F)cc1 (configuration not stated)	0.6	6.4%	3.6	-3.8%	-4.2%	-10.3
CCN(C(=O)Cn1c(=O)oc2cc(S(=O)(=O)N3CCOCC3)ccc21)c1ccccc1	0.7	11.5%	3.1	0.3%	0.6%	-22.2
O=C(COc1nncc2ccccc12)NCC(F)(F)F	-0.3	?	0.6	17.2%	-1.1%	6.8
COc1ccc(OC)c(C2Nc3nc4ccccc4n3C(C)=C2C(=O)Nc2ccc(C)cc2C)c1 (configuration not stated)	1.0	5.7%	7.8	-10.6%	-15.0%	7.8
O=c1oc2c(CN3CCOCC3)c(O)ccc2c2c1CCC2	0.0	13.2%	-4.1	-1.3%	-6.9%	6.2
Cc1ccc(Nc2c(N)c(=O)oc3ccccc23)cc1	2.4	-33.6%[inhibitor]	4.2	-28.3%	-3.7%	32.3
CCN1CCN(C(=O)NCc2ccccc2)CC1	-1.0	-30.6%[15.4 µM]	-1.8	9.8%	/	5.6
Cc1nc(CS(=O)c2ccc(Cl)cc2)cc(NCc2ccc(Cl)cc2Cl)n1 (configuration not stated)	0.8	12.8%	-1.3	-2.4%	-3.7%	-7.8
CC(C)(C)N(Cc1ccccc1)C(=O)COC(=O)C1CCCCC1	0.1	9.7%[15.4 µM]	/	-8.0%	0.8%	5.1
O=C(NCc1ccc(F)cc1)c1ccc(S(=O)(=O)N2CCCCC2)cc1	0.7	0.4%	/	11.8%	1.4%	8.3
NC(=O)CN1C(=O)C(=O)N(Cc2ccc(F)cc2)C1=O	0.3	-11.5%	-0.5	7.0%	0.5%	7.7
O=C(O)c1cc(Cl)c(Cl)cc1C(=O)Nc1cccc2ncccc12	0.9	-3.1%	2.6	-1.5%	0.7%	-5.6
CCc1ccc(C(=O)NC(=S)NCc2cccnc2)cc1	1.8	21.9%	/	?	-0.6%	-0.2
CCOC(=O)c1sc(NC(=O)CCc2ccccc2)nc1C	/	4.9%	-6.3	9.3%	-12.4%	/
FC(F)(F)c1nc(Oc2ccccc2)c2ccccc2n1	2.6	-18.1%	3.7	-15.8%	-2.7%	-2.6
CCOCCOC(=O)c1[nH]c2c(c1C)C(=O)CC(c1ccc(OC)c(OC)c1)C2 (configuration not stated)	2.9	5.7%	-17.7	-18.2%	/	6.9
COc1ccc(-c2cnc3c(c2)CCC3(C#N)C#N)cc1	1.5	9.8%	-1.7	31.7%[activator]	15.8µM*	5.5
CCOc1ccc(NC(=O)C2CCN(S(=O)(=O)c3c(C)noc3/C=C/c3ccco3)CC2)cc1	-0.3	/	/	/	-6.1%	-14.0
C=CC[C@@H](CC(=O)N(CCO)Cc1ccccc1)C(=O)N[C@H](COC(=O)[C@H](CC=C)CC(=O)OC(C)(C)C)Cc1c[nH]c2ccccc12	-0.1	/	/	?	0.6%	1.1

Other results
SMILES	TRPML1 ag	gsp agonist	Menin MLL FP FL	gsp antagonist	ClpP mod	TRPML1 blocker
CCn1cc2nc(SCc3cc(C)ccc3C)n(Cc3ccc(Cl)cc3)c(=O)c2n1	-0.1	/	/	/	-1.6%	-16.8
Cc1ccc(C)c(Nc2nnc(-c3ccc(C)c(S(=O)(=O)N4CCCCC4)c3)c3ccccc23)c1	-0.8	/	/	/	-13.3%	-2.8
COC(=O)c1ccc(-c2csc(NC(=O)c3c(C)noc3C)n2)cc1	-0.8	4.9%[15.4 µM]	/	?	/	12.4
CC(=O)N[C@@H](CS)C(=O)O	0.3	/	1.3&-3.4&6.7	?	-0.5%	-4.9
O=C(Nc1ccc2c(c1)N(C1CCCC1)C(=O)c1ccccc1S2)c1ccccc1F	2.2	/	/	/	-13.8%	46.8
C=CCNC(=O)c1cc2c(=O)c3ccccc3oc2nc1C	3.1	9.9%	?	-2.9%	/	-11.5
CCN(c1ccccc1)S(=O)(=O)c1ccc(OC)c(NC(=O)Cc2ccccc2OC)c1	1.8	-36.7%[inhibitor]	/	-2.6%	-0.5%	19.9
C=CCn1c(SC)nnc1-c1cccc([N+](=O)[O-])c1	-0.3	-7.6%	-1.1	9.9%	0.8%	17.3
COc1cccc(-c2nc(CS(=O)(=O)CC(=O)NCc3ccc(C)cc3)c(C)o2)c1	0.7	/	/	/	8.4%	2.5
O=C(Nc1ccc(Br)cc1)c1cccc(NC(=O)C2C3CC4OC(=O)C2C4C3)c1 (configuration not stated)	-1.2	12.3%	3.2	?	-0.8%	-6.6
Cc1ccc(N2C(=O)c3ccccc3C2(O)c2ccccc2)cc1 (configuration not stated)	0.1	-6.6%	/	6.4%	/	8.0

High-throughput results deposited in PubChem BioAssay by National Center for Advancing Translational Sciences (NCATS).
